CDC25B CDK2 inh: primary biochemical HTRF screen for blockers of M-phase inducer phosphatase 2 binding to CDK2/cyclin A; P30305+P24941; HTRF CDC25B-CDK2/CyclinA binding, anti-His/anti-Flag; stronger effect = higher value; z-score (test concentration not listed); 94,000 compounds, 0.72% hits; AID 1259370, 2018;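 also: score is relative to mean and SD of negative controls; strong numbers were not always called active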
HIV TAR-Tat: TAR RNA-Tat peptide displacers, HIV-1, primary screen, biochemical, FRET, FAM/TAMRA-labeled Tat; HIV-1 TAR RNA, Tat peptide displacement FRET; stronger effect = higher value; z-score (test concentration not listed); 100,000 compounds, 0.6% hits; AID 1259389, 2018;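 also: score is relative to mean and SD of negative controls; some compounds called inactive have numbers as strong as hits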
Active calls of the source: *; / = not tested or not shown.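 The calls were made as follows: active = z-score from 3 up in half or more of its runs; inactive = the rest.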 Compounds were not picked by outcome; any-hit rate near 0.9%.

SMILES | CDC25B CDK2 inh | HIV TAR-Tat
O=C(CCN1C(=O)/C(=C/c2ccc3c(c2)OCO3)SC1=S)Nc1nc(-c2ccccc2)cs1 | -39.2 | /
COc1cc(C2C(C#N)=C(N)OC3=C2C(=O)CC(C)(C)C3)ccc1OC(C)=O (configuration not stated) | -1.61 | /
CCSc1ncccc1C(=O)NOc1ccc([N+](=O)[O-])cc1[N+](=O)[O-] | -0.31 | /
Cc1nc(-c2ccc(F)cc2)sc1CCNS(=O)(=O)c1cccs1 | / | 0.39
CCCN1C(=O)c2n[nH]c(C)c2C1c1ccc(O)cc1 (configuration not stated) | -0.86 | 0.11
Cc1ccc(CNS(=O)(=O)c2ccc(-c3coc(C)n3)cc2)o1 | / | 0.78
CCOC(=O)N1CCC(Nc2c(-c3ccc(C)cc3)c(=O)c2=O)CC1 | / | -0.03
COC(=O)c1ccc(C2c3c(oc4ccc(C)cc4c3=O)C(=O)N2Cc2ccc3c(c2)OCO3)cc1 (configuration not stated) | -1.12 | 1.86
Cc1ccc(S(=O)(=O)N2CCCN(S(=O)(=O)c3ccc(C)cc3)CC2)cc1 | 1.5 | /
Cc1ccc(COC(=O)c2[nH]c3c(c2C)C(=O)CC(c2ccco2)C3)cc1 (configuration not stated) | -0.09 | -1.76
O=C(CS(=O)(=O)c1ccc2c(c1)S(=O)(=O)N=CN2)NCCc1ccccc1 | / | 0.68
CCCCOC(=O)NNOC(=O)CCCC | -0.51 | /
CCCCN(CC)CCCNC(=O)c1cc2ccc3cccnc3c2[nH]1 | / | 1.09
Cc1ccc(NS(=O)(=O)c2ccc3c(c2)NC(=O)CCS3)nc1 | / | -1.05
CC(C)(C)NC1CC(=O)N(c2ccccc2)C1=O (configuration not stated) | -1.46 | -1.29

Whole records as entered above. Order of values: CDC25B CDK2 inh | HIV TAR-Tat
Profile of `COc1cc(C2C(C#N)=C(N)OC3=C2C(=O)CC(C)(C)C3)ccc1OC(C)=O` (configuration not stated) = -1.61 | /
Profile of `O=C(CCN1C(=O)/C(=C/c2ccc3c(c2)OCO3)SC1=S)Nc1nc(-c2ccccc2)cs1` = -39.2 | /

(continued)
SMILES | CDC25B CDK2 inh | HIV TAR-Tat
CC1CCCN(CCCNC(=O)C2CCN(c3nn4c(=O)c5c(nc4s3)CCCC5)CC2)C1 (configuration not stated) | / | 2.26
O=C(c1cc2c(s1)-c1ccccc1S(=O)(=O)C2)N(Cc1ccco1)C1CCCCC1 | -1.15 | -1.21
CC(O)CNc1nc2c(c(=O)n(C)c(=O)n2C)n1Cc1cccc(Br)c1 (configuration not stated) | -1.46 | 2.03
c1ccc(-c2nc3c4ccccc4nc(NCc4ccco4)n3n2)cc1 | 0.72 | -1.32
N/C(=N\OC(=O)c1c(F)cccc1F)c1ccccn1 | -1.16 | /
Cc1ccc(S(=O)(=O)Nc2cc(S(=O)(=O)c3ccc(C)cc3)c(O)c3ncccc23)cc1 | 1.05 | 0.66
Nc1ccc2oc(-c3cccc(-c4nc5cc(N)ccc5o4)n3)nc2c1 | -1.53 | -0.19
Cc1nn(S(=O)(=O)c2ccc(Cl)cc2)cc1-c1ccccc1 | -1.64 | /
CNc1cc(C)nc2c(-c3ccc(C)cc3)c(C(F)(F)F)nn12 | -0.42 | -0.39
Cc1cc(=O)[nH]c(SCC(=O)c2ccc(Cl)cc2)n1 | -8.03 | /
O=c1[nH]n(-c2ccc(S(=O)(=O)N3CCc4ccccc43)cc2)c(=O)c2ccccc12 | -2.15 | 0.62
O=c1c(N2CCc3ccccc3C2)csc2ccc(Br)cc12 | / | -0.29
COc1ccc(N2CCN(C(=O)Nc3snnc3C(=O)N3CCOCC3)CC2)cc1 | / | -0.67
Nc1nc(Nc2ccccc2C(F)(F)F)cc(-c2ccccc2)n1 | -0.51 | /
Cc1cc(N)n(-c2cc(C)c3c(C)nn(C)c3n2)n1 | -2.58 | /
O=C(NCCCN1CCCC1)c1cn2c3c(ccc(Cl)c3c1=O)OCC2 | / | -0.01
Cc1nnc(N2C(=O)C(=O)/C(=C(/O)c3ccc(Cl)cc3)C2c2ccccc2)s1 (configuration not stated) | -2.7 | /
CC(C)c1nn2c(=O)cc(COC(=O)c3ccc4c(c3)OCO4)nc2s1 | / | 0.94
CCN1C(=O)C2(c3ccccc31)c1c(oc3ccc(C)cc3c1=O)C(=O)N2CCCOC (configuration not stated) | 0.2 | 1.03
CCOC(=O)C1=NOC2C(=O)N(c3ccc(Cl)cc3)C(=O)C12 (configuration not stated) | -0.51 | 0.79
O=c1c2cn(Cc3ccccc3)c3ccccc3c-2nn1Cc1ccccc1F | / | -1.53
NC(=O)c1c(NC(=O)c2cc3n(n2)C(C(F)(F)F)CC(c2ccccc2)N3)sc2c1CCCC2 (configuration not stated) | 1.72 | /
Oc1cccc(-c2nc(=S)c3c([nH]2)Oc2ccc(F)cc2C3)c1 | 0.2 | -1.02
Cc1ccc(C(=O)N2CCN(Cc3ccc4c(c3)OCO4)CC2)cc1 | 0.1 | /
CN(C)CCNC(=O)CCC(=O)N1CCCn2nc(-c3cn(C)c4ccccc34)cc21 | / | 1.65
CCOC(=O)c1noc2nc(C)nc(NCc3ccc(C)o3)c12 | / | -0.23
COc1ccc(-c2nc3n(c2C(=O)NC2=NCCS2)CCS3(=O)=O)cc1 | 0.54 | -0.91
O=[N+]([O-])c1ccc(Sc2ccccc2)nc1 | -0.78 | /
C=CCn1c(SCC(=O)N2CCN(CCO)CC2)nc2sc(C)c(C)c2c1=O | 0.68 | /
Cc1ccc2ncc(C(=O)Nc3ccc(Br)cc3)c(=O)n2c1 | -1.49 | 2.02
COc1ccc2nc(NC(=O)Cn3cnc(S(=O)(=O)N4CCCC4)c3)sc2c1 | / | 1.95
OC(CN1CCC(NC2CCCCC2O)CC1)Cn1ccc2ccccc21 (configuration not stated) | -1.61 | /
Clc1ccccc1-c1nc2c3cnn(-c4ccccc4Cl)c3ncn2n1 | -1.06 | 2.59
CCOc1ccccc1N(CC)C(=O)NCc1noc2ccccc12 | / | -1.63
O=C(Nc1ccc(S(=O)(=O)Nc2ncccn2)cc1)C1CC1 | 0.33 | /
CCOC(=O)c1sc(=S)n(-c2ccccc2)c1N | 1.97 | 0.55
O=C(NCCN1CCCCC1)c1[nH]nc2c1CCc1ccccc1-2 | / | 0.51
O=C1c2ccccc2NC(c2ccc(Br)cc2)N1c1ccc(F)cc1 (configuration not stated) | -5.34 | 1.41
Cc1nn(-c2ccc(F)cc2)c(-n2cccc2)c1C(=O)Nc1nccs1 | / | 2.19
CN(C)/C=C/C(=O)c1ccncc1 | 0.33 | /
C=CCSc1nc2c(c(=O)[nH]1)C(c1ccc(OC)cc1)C(C(=O)OC)=C(C)N2 (configuration not stated) | -2.52 | -2.14
Cc1sc2c(c1C)CSC(C(=O)Nc1c(C)n(C)n(-c3ccccc3)c1=O)=C2 | / | -1.8
O=c1c(Oc2ccccc2Cl)c(C(F)(F)F)oc2cc(O)ccc12 | 0.88 | -0.91
Cn1c(SCc2cc(=O)c3cc(F)ccc3[nH]2)nc2sc3c(c2c1=O)CCCC3 | / | 0.58
COc1ccc(N2CSC3=C(C#N)C(c4cc(Br)ccc4OC)CC(=O)N3C2)cc1 (configuration not stated) | 5.38* | -0.71
CCCSc1nc2c(c(=O)[nH]1)C(c1cccc(O)c1)CC(=O)N2 (configuration not stated) | -2.25 | 2.34
C=CCN(C(=O)Cc1c(C(=O)O)[nH]c2ccc(Cl)cc12)c1ccccc1 | -0.61 | /
CC(=O)N1CCN(c2csc3ccc(C)cc3c2=O)CC1 | / | 0.83
Clc1ccc(Cc2nn3c(-c4ccccc4)nnc3s2)cc1 | -0.81 | 0.21
Cn1cccc1Cc1nnc(SCC(=O)N2CCN(c3ccccc3)CC2)n1-c1ccccc1 | -0.36 | 1.37
Cc1cc(C)n2nc(C(=O)N3CCOCC3)nc2n1 | 1.17 | 0.92
O=C(CSc1nc2ccccc2s1)Nc1ncc(Br)s1 | -2.22 | -0.61
O=C(NC1CCCC1)c1cc2c(s1)-c1ccccc1S(=O)(=O)C2 | -2.75 | 0.67
O=C(C1=C(N2CCN(c3ccc(F)cc3)CC2)c2ccccc2S1(=O)=O)N1CCOCC1 | / | 0.79
CC1CN(C(=O)N2CCC(C(=O)NCCC3=CCCCC3)CC2)c2cc(Cl)ccc2O1 (configuration not stated) | / | 0.21
COc1ccc(N2CSC3=C(C#N)C(c4ccc(SC)cc4)CC(=O)N3C2)c(OC)c1 (configuration not stated) | 2.48 | -0.01
Cc1cc(NC(=O)CCS(=O)(=O)c2ccc3c(c2)oc(=O)n3C)ccc1Br | / | 2.34
CC1CCC(NC(=O)C2CCCN(S(=O)(=O)c3ccc4[nH]c(=O)ccc4c3)C2)CC1 (configuration not stated) | / | -6.17
CCCC12CN3CC(CCC)(CN(C1)C3C1CCOC(C)(C)C1)C2=O (configuration not stated) | -0.52 | 0.28
CCOc1ccc(-n2c(=O)c3sccc3n(Cc3cc(=O)n4ccccc4n3)c2=O)cc1 | 0.74 | /

(next part)
SMILES | CDC25B CDK2 inh | HIV TAR-Tat
Cc1cc(=O)n(-c2cc(Cl)c(S(=O)(=O)O)cc2Cl)[nH]1 | -2.21 | /
COCCN(CCOC)c1ncnc2c1cnn2-c1cccc(C)c1 | -3.14 | /
COc1cccc(C2=Nn3c(nc4ccccc4c3=O)SC2)c1 | -2.39 | 0.61
O=S(=O)(Nc1ccncc1)c1ccc(Cl)cc1 | 0.25 | /
COc1ccc(OCC(O)Cn2c(CO)nc3ccccc32)cc1 (configuration not stated) | 0.77 | 0.07
Cc1ccc(Cn2cccc2C2=NC(Cc3ccccc3)CO2)cc1 (configuration not stated) | -1.38 | 0.03
c1ccc(-c2nn(-c3ccccc3)[n+](-c3ccccc3)n2)cc1 | -1.74 | 2.2
c1cc2c(cc1CN1CCc3nc(Nc4ccc5c(c4)OCCO5)ncc3C1)OCCO2 | / | 1.38
O=C(Nc1cccnc1)c1cc(CN2CCOCC2)on1 | / | 0.76
CCOc1cc(C2C(C(=O)OCCSCC)=C(C)NC3=C2C(=O)CC(C)(C)C3)ccc1O (configuration not stated) | -0.09 | 2.71
Cc1cc(NC(=O)c2cc3c(COC(=O)C(C)C)cnc(C)c3oc2=O)ccc1Br | / | 1.99
O=C(Cn1cc(S(=O)(=O)c2ccc(F)cc2)c(=O)c2cc(F)ccc21)Nc1ccc(Cl)cc1 | -1.25 | 1.96
Cc1cccn2c(Nc3ccc4c(c3)OCO4)c(-c3ccccn3)nc12 | 0.23 | 0.11
C[C@H]1COc2c(C3(N)CC3)c(F)cc3c(=O)c(C(=O)O)cn1c23 | / | -0.35
Cn1cc(S(=O)(=O)c2ccc(F)cc2)c(=O)c2ccccc21 | -1.01 | 0.18
CCCCN1C(=O)C(O)(CC(=O)c2ccccn2)c2cc(Br)ccc21 (configuration not stated) | -1.3 | 1.6
CCOC(=O)c1cc(N2C(=O)c3ccccc3C2=O)ccc1N1CCCCC1 | -1.07 | /
Nc1cc(-c2ccc(Cl)cc2)nn1S(=O)(=O)c1cccc2nsnc12 | -1.86 | -0.17
CCc1cc2c(cc3c(=O)n(CC(=O)NC4CCCCC4C)ncn32)s1 (configuration not stated) | -0.65 | 0.98
Cc1ccc(C)c(Cn2nc(-c3ccc(C)c(S(=O)(=O)N4CCOCC4)c3)ccc2=O)c1 | 0.62 | -0.16
O=C(Cc1c(F)cccc1Cl)N1CCC(O)(C2CCN3Cc4ccccc4N=C23)CC1 (configuration not stated) | / | 0.33
CCOC(=O)CSC1=C(C#N)C(c2ccc(C)o2)CC(=O)N1 (configuration not stated) | -2.05 | 0.07
COC(=O)c1cc(OC)c(=O)c2c(OC)c(OC)ccc2c1 | / | 2.04
Cc1cccc(-c2noc(-c3cn(Cc4ccc(N)cc4)cn3)n2)c1 | -1.64 | 0.98
Cc1ccc(-c2nc(-c3cccc(C)c3)no2)cc1 | -0.98 | /
Cc1ccc(-c2onc(C)c2C)cc1S(=O)(=O)N1CCOc2ccccc21 | / | -0.06
O=C(Nc1ccc(Cl)cc1)Nc1nc2c(s1)CCCCCC2 | / | 0.32
CCCCN1C(=O)CSc2c(c3ccccc3n2C)C1C(=O)NCCCOC(C)C (configuration not stated) | / | 1.28
Cn1c2c(c(=O)n(C)c1=O)C(CC(=O)Nc1ccc(Cl)cc1)C(=O)N2 (configuration not stated) | -1.36 | -3.96
COc1ccc(-c2nc(NCCc3cc(OC)ccc3OC)c3ccccc3n2)cc1 | / | 1.64

Of the compounds above, these have a furan ring, fused or not:
SMILES | CDC25B CDK2 inh | HIV TAR-Tat
Cc1ccc(CNS(=O)(=O)c2ccc(-c3coc(C)n3)cc2)o1 | / | 0.78
Cc1ccc(COC(=O)c2[nH]c3c(c2C)C(=O)CC(c2ccco2)C3)cc1 (configuration not stated) | -0.09 | -1.76
O=C(c1cc2c(s1)-c1ccccc1S(=O)(=O)C2)N(Cc1ccco1)C1CCCCC1 | -1.15 | -1.21
c1ccc(-c2nc3c4ccccc4nc(NCc4ccco4)n3n2)cc1 | 0.72 | -1.32
CCOC(=O)c1noc2nc(C)nc(NCc3ccc(C)o3)c12 | / | -0.23
CCOC(=O)CSC1=C(C#N)C(c2ccc(C)o2)CC(=O)N1 (configuration not stated) | -2.05 | 0.07

(further entries)
SMILES | CDC25B CDK2 inh | HIV TAR-Tat
CC(C)Cc1ccc(S(=O)(=O)Nc2ccc3c(c2)COC3=O)cc1 | -0.93 | 1.07
O=C(Nc1ccccc1F)NC1COc2ccccc2C1 (configuration not stated) | / | 0.09
CCCCCOC(=O)C1=C(C)Nc2ncnn2C1c1ccc(OC)cc1 (configuration not stated) | -1.2 | -0.52
CC(=O)Nc1c(I)cc(I)c(C(=O)O)c1I | / | 1.85
O=C(Nc1cccc(Cl)c1)N1CCC(N2CCN(Cc3ccccn3)C(=O)C2=O)CC1 | / | 1.5

Source: PubChem (Center for Chemical Genomics, University of Michigan)
